# Screens from PubChem.
# S aureus helic = blocks Staphylococcus aureus DNA helicase | purified S. aureus helicase, fluorescence unwinding assay; about half of the hits fall short of the stated cut | AID 485395 | inhibition, %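 (tested at about 80 µM)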 | actives 0.05% (n = 120,000);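 active = both duplicates at 50% or more, or one of them with a favoured structure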;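 note: 0% = mean of negative control wells and 100% = mean of positive control wells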
# MgrA DNA FP = S. aureus MgrA-DNA binding modulation | fluorescence polarization | inhibition, %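 (about 10 µg/mL by stock and volumes)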 | actives 0.13% (n = 84,000) | AID 602314;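 active = above 50% in either of two replicates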;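 note: 0% = protein plus DNA without compound and 100% = DNA alone without protein; higher means less MgrA bound to DNA so lower polarization; one replicate is shown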
# An asterisk follows results filed as active; . = no result given; & = joins results of further samples. A portion of the library, so the mix of outcomes need not match the whole.
SMILES,S aureus helic,MgrA DNA FP
O=C1OCC2=C1C(c1ccc3c(c1)OCO3)CC(=O)N2c1ccccc1 (stereo unspecified),-1,1.5
CC1CCCCC1NC(=O)c1cnn2c(C(F)(F)F)cc(-c3ccccc3)nc12 (stereo unspecified),21,3.1
CCc1ccc(C2CC(c3ccccc3)=NN2C(=O)CCCC(=O)O)cc1 (stereo unspecified),2,-1.1
CCCOc1cccc2c1CCN(CC)C2=O,11,.
C=CCNC(=O)c1cccc(OC)c1,2,-2.6
CCOC(=O)COC1=C(c2ccccc2)C(=O)c2ccccc2C1=O,14,.
COc1cccc(CN(C)S(=O)(=O)c2ccc(C)cc2)c1,-7,.
NNc1nc(N2CCOCC2)nc(N2CCOCC2)n1,10,-0.7
CC1(C)CC(=O)C(N=Nc2ccc(C(F)(F)F)cc2[N+](=O)[O-])=C(O)C1,.,3.1
COCC(C)NC(=S)N1CCN(c2ccccc2Cl)CC1 (stereo unspecified),5,.
O=S(=O)(NCc1cccs1)c1ccc(-c2cc(C(F)(F)F)no2)s1,16,.
COc1cccc(NC(=O)COc2ncnc3ccccc23)c1,0,.
CCOc1ccccc1N1CCN(C(=O)[C@H](C)NC(N)=O)CC1,9,.
Cc1ccc2nc(SCC(N)=O)oc2c1,-12,1.9
O=C(COC(=O)c1ccco1)NC1CCCCC1,8,-0.9
Nn1c(COc2cccc(Br)c2)nnc1SCC(=O)N1CCOCC1,12,.
CCOC(=O)c1cnc(SCC(=O)OCC(=O)NC2(C#N)CCCC2)nc1N,6,.
Cc1cc(C)c2c(CC(=O)Nc3c(C(=O)c4ccccc4)oc4ccccc34)coc2c1,14,-0.5
COCCN1C(=O)/C(=C\c2ccc(OC(=O)C3C(C=C(Cl)Cl)C3(C)C)cc2)SC1=S (stereo unspecified),.,2.5
Cc1ccc(S(=O)(=O)/N=S(\C)c2ccc(C(F)(F)F)cn2)cc1 (stereo unspecified),.,-1.0
CCCN(Cc1c(F)cccc1F)CC1CC1,2,2.2
O=C(CC(Sc1ccc(Cl)cc1)c1ccc(Cl)cc1)C1CC1 (stereo unspecified),1,-1.0
CC(=O)Nc1ccc(OC(F)(F)C(F)F)c(NC(C)=O)c1,2,.
Fc1ccccc1C=Nc1cccc2ccccc12,7,1.7
COc1cc(CC(=O)OCC(N)=O)cc(OC)c1OC,-14,.
CCOC(=O)c1nn(-c2cccc(C(F)(F)F)c2)cc1O,-1,2.2
Cc1ccc(S(=O)(=O)N2CCC(C(=O)OCC(=O)c3cc(C)n(C4CC4)c3C)CC2)cc1C,14,.
Cc1onc(-c2ccccc2)c1C(=O)NCCN1CCOCC1,.,-1.5
O=C(CN1CSCC1=O)Nc1cccc(C(=O)NC2CC2)c1,-13,.
Cc1cc(/C=C(/C#N)c2ccc(C(=O)O)cc2)c(C)n1-c1ccc(S(N)(=O)=O)cc1,8,7.2
CC1CC(C)(C)NC(=S)N1CCC(=O)N1c2ccccc2CC1C (stereo unspecified),-4,-2.4
CSc1ccc(C(N)CCO)cc1 (stereo unspecified),.,-2.1
COc1cc2c(N3C(=O)CCC3=O)c3c(=O)oc(C)cn3c2cc1OC,16,1.0
CCc1ccc(N2CC(C(=O)NC(C)CC)CC2=O)cc1 (stereo unspecified),1,-2.4
N#CC(Cc1cccnc1)C(=O)Nc1ccccc1 (stereo unspecified),14,2.2
Cc1[nH]c2ccc(C(=O)Nc3ccccc3N3CCOCC3)cc2c1C,-7,.
Cc1ccc(-c2nn(C)c(=O)c3ccccc23)cc1CNC(=O)CSc1nc2ccccc2o1,0,.
COc1ccccc1C1CCN(Cc2cccc(C(=O)N3CCC(O)CC3)c2)CC1,.,0.3
O=S1(=O)N=C(Cl)c2ccccc21,3,.
Cc1oc(-c2cccc(Cl)c2)nc1CSc1nc2c(c(=O)[nH]1)CCCC2,4,0.3
COc1cc(/C=C/C(=O)OCC(=O)Nc2cccc(F)c2)ccc1O,-14,.
Cc1onc(-c2ccccc2)c1C1=N/C(=C\c2cccc(Br)c2)C(=O)O1,.,-0.8
c1ccc(-c2nn3c(-c4ccccc4)nnc3c3ccccc23)cc1,1,2.8
COc1ccc(C2(C(=O)N3CCC(n4nc(-c5ccccc5)oc4=O)CC3)CC2)cc1,-5,.
O=C(NCc1ccc2c(c1)OCO2)c1cccc(C(=O)NCc2ccc3c(c2)OCO3)c1,8,-4.0

# Quoted from the listing.
# Under S aureus helic, O=S1(=O)N=C(Cl)c2ccccc21 shows 3
# Under S aureus helic, Cc1[nH]c2ccc(C(=O)Nc3ccccc3N3CCOCC3)cc2c1C shows -7

# The results go on.
SMILES,S aureus helic,MgrA DNA FP
CCCN(CC1CC1)C(=O)CSc1nnc(Nc2ccccc2F)s1,-11,.
CCCCn1cc(C(=O)c2cc(C)ccc2O)cc(C#N)c1=O,-14,.
CC1=C(C(=O)OCC2CCCO2)C(c2ccc(C)o2)C2=C(CCCC2=O)N1 (stereo unspecified),17,-2.7
Cc1nc2ccccc2nc1CSc1nc2sc3c(c2c(=O)n1C)CCC(C)C3 (stereo unspecified),12,-1.0
COc1ccc(C)cc1N1C(=O)Cn2cccc2C1C(=O)NC1CCC(C)CC1 (stereo unspecified),1,.
CCN1C(=O)CCC1(C)C(=O)NC1CCCC1 (stereo unspecified),-31,.
Oc1ccc(N=Cc2cccs2)cc1,.,11
COc1ccccc1C(=O)N/C(=C\c1ccccc1)C(=O)N1CCOCC1,9,1.5
O=c1/c(=C2/CCCCCN2)c2nc(-c3ccccc3)cn2n1-c1ccccc1,13,2.8
CC(C)N1CC(C(=O)Nc2ccc(Cl)c(Cl)c2)CC1=O (stereo unspecified),-7,-3.4
O=C(CN1CCCc2ccccc21)Nc1ccccc1,5,2.2
Nc1cccc(F)c1-c1ncon1,-16,.
CNC(=O)NC(=O)CSc1nnc(-c2ccco2)o1,.,0.8
COc1ccc(-n2c(O)c(C=NC(C)(C)C)c3ccccc3c2=O)cc1,-29,1.9
CCc1ccccc1NC(=O)C1NC(=O)CC1c1ccccc1 (stereo unspecified),3,.
CCc1nc2c(c(=O)[nH]1)C1(CCCCC1)Cc1ccccc1-2,-16,.
Oc1ccc(Br)cc1C=NCc1ccncc1,.,-0.6
CCOC(=O)C1=C(C)NC(C)=C(C(=O)OCC)C1C(=O)OCc1cc(=O)oc2cc(O)ccc12,0,.
O=c1cc(O)c2sc3nc4c(c(C(F)(F)F)c3c2[nH]1)CCCCC4,-9,2.4
NC1=NNC2=C(c3ccccc3C(F)(F)F)NNN12,-1,-5.3
CC1(C)Cc2ccccc2C2=NNC(=O)C2=N1,10,0.3
COc1ccc(-c2nc(NC(=O)c3cccc(-n4cnnn4)c3)sc2C)cc1,-4,.
CCOc1cccc(/C(O)=C2/C(=O)C(=O)N(Cc3ccncc3)C2c2ccccc2)c1 (stereo unspecified),9,.
COc1ccc(C2CC(=O)C3=C(C2)NC(C)=C(C(=O)OC2CCCC2)C3c2ccc([N+](=O)[O-])cc2)cc1 (stereo unspecified),.,-0.6
Cc1ccc(C(=O)NCCN2CCNC2=O)cc1,.,5.7
c1ccc(NCc2nnc3n2CCCCC3)cc1,-24,2.2
Cc1nn(Cc2ccccc2Cl)c(C)c1NC(=O)c1noc2c1CC(C(C)(C)C)CC2 (stereo unspecified),-18,.
CC(C)C(=O)Nc1cccc(-c2cn3cccnc3n2)c1,2,.
CCOC(=O)[C@H](CCc1ccccc1)N[C@@H](C)C(=O)N1CCC[C@H]1C(=O)O,.,0.4
O=C(CC1(c2ccc(Cl)cc2)C(=O)c2ccccc2C1=O)N1CCOCC1,9,-1.0
COCCn1c(=NC(=O)C2COc3ccccc3O2)sc2ccccc21 (stereo unspecified),0,.
CC1(C)OC2C(CO)OC(n3cnc4c(=O)[nH]cnc43)C2O1 (stereo unspecified),2,-1.4&0.8
Cc1cccc(OCC(O)CN2CCN(c3ccccc3)CC2)c1 (stereo unspecified),24,.
COc1ccc(-c2cc(C(=O)Nc3cccc(C(C)=O)c3)c3ccccc3n2)cc1,.,-0.2
Cc1cc(=O)n(CC(=O)Nc2cc(Cl)ccc2C)c(C(C)C)n1,-9,.
O=c1oc2c(Cl)cc(Cl)cc2cc1-c1nnc(-c2ccccc2)o1,.,-0.8
CC(=O)N1CCN(C2=NC(=O)C(=C3CCCCC3)S2)CC1,4,1.4
CC(=O)Nc1c(O)n(C)c2ccccc12,1,.
O=C(O)C1OC(Oc2cc(O)c3c(=O)cc(-c4ccccc4)oc3c2O)C(O)C(O)C1O (stereo unspecified),0,.
Cc1ccc(-n2nc(CC#N)c(C#N)c2N)cc1,-10,.
COc1ccc(OCC2CN=C(c3ccccc3CO)O2)cc1 (stereo unspecified),.,-3.5
CCS(=O)(=O)CCSc1nc(C)cc(C)c1C#N,-9,3.5
Cc1cc(CSc2ccccc2C(=O)O)on1,11,.
O=C(/C=c1/[nH]/c(=C/c2ccc(F)cc2)c(=O)[nH]c1=O)c1ccccc1,-81,4.8
CC(C)(C)OC(=O)N1CCCN(S(=O)(=O)c2ccc(-n3cccn3)cc2)CC1,8,.
CCc1ccc(NC(=O)C(C)OC(=O)c2cccc(N(C)C)c2)cc1 (stereo unspecified),-7,-0.2
CC(Sc1nc2sc3c(c2c(=O)[nH]1)CCCC3)C(=O)Nc1nccs1 (stereo unspecified),0,-3.4
S=c1[nH]nc(COc2ccccc2Cl)n1C1CC1,2,.
O=C(COC(=O)c1ccc(S(=O)(=O)N2CCCC2)cc1)NCc1ccccc1,14,.
CCN1CCN(C(=O)CCC(=O)N2CC3CCCN3c3ccccc32)CC1 (stereo unspecified),-3,.
O=C(CCc1nc2ccccc2s1)NC1CCCc2ccccc21 (stereo unspecified),-21,1.0
CCCn1c(SCc2nc3ccccc3[nH]2)nc2ccccc21,-5,0.8
O=C(O)C1CC=CCC1C(=O)N1CCOCC1 (stereo unspecified),.,-0.6
O=C(COc1nc2ccccc2nc1N1CCOCC1)N1CCc2ccccc2C1,25,.
CC1CC(C)CN(c2ncnc3nc[nH]c23)C1 (stereo unspecified),20,.
Cc1cc(-c2ccccc2)cnn1,.,-2.6
CCC(C)C1NC(=S)N(C2CCCCC2)C1=O (stereo unspecified),-14,0.5
Cc1ccc(S(=O)(=O)N2Cc3ccccc3CC2C(=O)NCCC(C)C)cc1 (stereo unspecified),-18,0.3
O=C1c2ccccc2C(=O)N1CC1CCCN2CCCCC12 (stereo unspecified),-30,.
O=C(COc1cc(O)c2c(=O)cc(-c3ccccc3)oc2c1)c1ccccc1,0,-1.0

# Gathered by group, the compounds so far with bromine
SMILES,S aureus helic,MgrA DNA FP
Nn1c(COc2cccc(Br)c2)nnc1SCC(=O)N1CCOCC1,12,.
Cc1onc(-c2ccccc2)c1C1=N/C(=C\c2cccc(Br)c2)C(=O)O1,.,-0.8
Oc1ccc(Br)cc1C=NCc1ccncc1,.,-0.6

# 4 of the entries above in order of the MgrA DNA FP value, highest first:
smiles | MgrA DNA FP
c1ccc(-c2nn3c(-c4ccccc4)nnc3c3ccccc23)cc1 | 2.8
Cc1ccc2nc(SCC(N)=O)oc2c1 | 1.9
CNC(=O)NC(=O)CSc1nnc(-c2ccco2)o1 | 0.8
NNc1nc(N2CCOCC2)nc(N2CCOCC2)n1 | -0.7

# Profiles as entered above:
# CCOc1cccc(/C(O)=C2/C(=O)C(=O)N(Cc3ccncc3)C2c2ccccc2)c1 (stereo unspecified) as listed: S aureus helic: 9; MgrA DNA FP: .
# CC1(C)OC2C(CO)OC(n3cnc4c(=O)[nH]cnc43)C2O1 (stereo unspecified) as listed: S aureus helic: 2; MgrA DNA FP: -1.4&0.8
# CC(=O)N1CCN(C2=NC(=O)C(=C3CCCCC3)S2)CC1 as listed: S aureus helic: 4; MgrA DNA FP: 1.4

# Further structures follow:
SMILES,S aureus helic,MgrA DNA FP
CCN(C(=O)c1sc2nc3n(c(=O)c2c1C)CCCC3)c1ccccc1,13,.
Cc1cc(=O)[nH]c(SCC(=O)N2CCCC2)n1,17,.
Cc1ccc(NC(=O)CSc2nc3ncccc3[nH]2)cc1,-29,.
CCn1c(C(=O)NCc2ccccc2)cc2oc3ccccc3c21,11,-2.0
Cc1ccc(S(=O)(=O)NC(C)C(c2cccs2)N2CCN(C)CC2)cc1 (stereo unspecified),7,.
COc1ccc(C2(C(=O)NC(C)C)CCOCC2)cc1,12,3.0
Cc1nc(C)c(-c2ccnc(/N=C/NO)n2)s1,.,0.3
CC1(C(=O)NN)CC1C(=O)NN (stereo unspecified),.,1.5
CCOC(=O)c1c(C)[nH]c(C)c1C(=O)COC(=O)c1ccc(N2CCCC2=O)cc1,2,.
N#Cc1ccc(CSc2nnc(-c3cccs3)n2CC2CCCO2)cc1 (stereo unspecified),3,.
COC(=O)CSc1nnc(-c2cccs2)n1-c1ccc(Cl)cc1,-12,.
CSc1nc(-c2ccccc2)c(C#N)c(N(C)C2CCCCC2)n1,-14,.
CC(C)C(=O)N1C(=O)c2cccc3c(S(=O)(=O)N(C)C)ccc1c23,11,.
Cc1nc(Cc2nnc(SC/C(O)=C(\C#N)c3nc4ccccc4[nH]3)o2)cs1,-12,.
COc1ccc(OC)c(C=C2C(=O)OC(C)(C)OC2=O)c1,.,0.6
CCc1c(C)[nH]c(C(=O)OCc2ccccc2)c1C,19,-1.9
Cc1cccc(C(CC(=O)NC2CC2)n2cccc2)c1 (stereo unspecified),2,.
COc1ccc(NS(=O)(=O)c2cc(C(=O)N3CCN(C(C)=O)CC3)ccc2Cl)cc1,1,.
CC(=O)Nc1ccc(N2C(=O)C=CC2=O)cc1,10,.
Cc1cc(S(=O)(=O)NC2CCCCNC2=O)c(C)s1 (stereo unspecified),.,1.5
